Screens deposited in PubChem by several laboratories.
Bfl-1 A1 inh – caspase 3/7 activation in MEF A1-2A-BIM cells, primary screen, A1 inhibitor project, cell-based, luminescence, HTS | Caspase-Glo 3/7 luminescence, 3 h; percent of clofoctol response, vehicle zero | caspase activation, % (no concentration beside the values) | AID 2462, 2010 | hit rate 0.066% among 330,000;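 active = over half of replicate activation scores above 10%, or exactly half above 10 with the replicate mean above 10; inconclusive = replicate mean below 10 yet half the replicates above 10; inactive = over half of replicates below 10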;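 note: wells of about 30 µL received 50 nL stock; many hits fall short of the cut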
T cruzi repl – inhibitors of intracellular T. cruzi growth, primary screen, luminescence, NIH3T3 host cells | T. cruzi beta-gal in NIH3T3, 90 h | inhibition, % (concentration not given with the values) | hit rate 1.4% among 300,000 | AID 1885, 2009;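 active = mean inhibition across valid replicates above about 55%, limit read from the data; inconclusive = mean below that limit but half or more replicates reach it; inactive = mean below it, under half of replicates reach it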;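 note: signal also drops with host cell toxicity which is not excluded here; 0% = plate median of DMSO wells and 100% = zero luminescence signal; higher percent means less beta-gal luminescence so fewer parasites; stock transfer was 50 nL into about 50 µL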
MLL AF4-AF9 inh – inhibitors of AF4 peptide binding to AF9, primary screen, biochemical, AlphaScreen, biotin-AF4 peptide, FLAG-AF9, single point. hit rate 0.47% among 350,000. AID 651704, 2012. Protein AF-9 (Homo sapiens), P42568. inhibition, % at 10 µM;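 active = every replicate reaching a set inhibition limit, whatever the replicate mean, cut at about 25% in these data; inconclusive = mean inhibition reaches that limit but some replicates miss it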;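 note: 0% = plate neutral control median and 100% = total signal loss; the record names both 10 and 1 µM as test concentration; the first replicate is given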
Target sequence (P42568 whole entry, looked up): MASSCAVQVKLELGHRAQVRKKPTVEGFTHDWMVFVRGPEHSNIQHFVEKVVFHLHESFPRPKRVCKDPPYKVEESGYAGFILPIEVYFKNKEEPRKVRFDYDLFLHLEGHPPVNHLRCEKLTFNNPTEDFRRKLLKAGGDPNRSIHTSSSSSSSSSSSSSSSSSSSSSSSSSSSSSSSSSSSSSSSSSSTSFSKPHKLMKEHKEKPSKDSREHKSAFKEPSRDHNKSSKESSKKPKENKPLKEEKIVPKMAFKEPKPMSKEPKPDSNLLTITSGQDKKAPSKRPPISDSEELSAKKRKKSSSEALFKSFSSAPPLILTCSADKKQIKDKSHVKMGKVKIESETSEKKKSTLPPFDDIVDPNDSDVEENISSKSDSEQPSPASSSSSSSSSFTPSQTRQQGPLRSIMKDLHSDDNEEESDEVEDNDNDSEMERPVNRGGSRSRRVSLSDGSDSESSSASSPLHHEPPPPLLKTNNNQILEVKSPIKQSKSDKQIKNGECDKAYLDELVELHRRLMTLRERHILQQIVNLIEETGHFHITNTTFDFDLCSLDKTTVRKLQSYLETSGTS
Calb FLC – C. albicans growth inhibition with fluconazole, primary screen, CaCi-2 strain, Alamar Blue fluorescence; C. albicans CaCi-2 (fluconazole-resistant clinical isolate) + fluconazole, 48 h; growth inhibition, % (no concentration beside the values); hit rate 0.57% among 300,000;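 active = most replicates above 75%; inconclusive = exactly half above 75%; inactive = most below 75%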;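 note: all wells also contain fluconazole at 8 µg/ml as a sub-toxic cotreatment; 0% = median of DMSO wells and 100% = median of geldanamycin control wells; wells of about 8 µL received 7.5 nL stock; the first replicate is given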
RanGTP-Impb inh – inhibitors of RanGTP-importin-beta interaction, primary screen, biochemical, FRET, CFP-Ran, YFP-importin-beta, homogeneous; cell-free CFP-Ran/YFP-importin-beta FRET ratio; hit rate 1.1% among 300,000; AID 2216, 2009; inhibition, % (concentration not given with the values);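 active = most replicates above 15%; inconclusive = exactly half above 15%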;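 note: 0% = DMSO wells and 100% = Ran loaded with GDP instead of GTP; wells of about 40 µL received 100 nL stock; the first replicate is given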
Vif TR-FRET – inhibitors of Vif binding to APOBEC3G peptide, primary screen, biochemical, TR-FRET, GST-Vif 1-94, biotin-A3G peptide, dose response retest (AID 1117319); TR-FRET GST-Vif / biotin-A3G peptide binding; higher % means a stronger effect; test concentration not given here; strong numbers were not always called active; one-dose inhibition, %; IC50 in µM for titrated hits; hit rate 0.57% among 260,000;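 active = above the screen mean plus three standard deviations and confirmed in dose response; inconclusive = results disagree or hit not tested in dose response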;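 note: Vif residues 1-94 fused to GST binding biotinylated APOBEC3G peptide 110-148; 0% = full assay without inhibitor and 100% = GST in place of GST-Vif; retest series ran down from 100 µM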
Beta apoptosis – inhibitors of cytokine-induced beta cell apoptosis, primary screen, luminescence; protection from apoptosis, % (test concentration not listed); AID 435005, 2010; hit rate 0.8% among 300,000; INS-1E cytokine-induced death, ATP luminescence, 48 h; percent of positive-control rescue, neutral wells zero;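 active = all replicates at 75% or more, or half of them and the mean; inconclusive = half reach 75% but not the mean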;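 note: 0% = cytokine-treated negative control wells and 100% = positive control rescue; higher means more ATP so stronger rescue from cytokine killing; wells of about 40 µL received 100 nL stock; the first replicate is given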
LANA-H2A inh – blockers of LANA interaction with H2A/H2B – biochemical, FP readout, HTS, primary screen; inhibition, % (test concentration not listed); hit rate 0.6% among 320,000; Protein LANA1 (Human herpesvirus 8 type P (isolate GK18)), Q9QR71; cell-free LANA-H2A/H2B peptide, fluorescence polarization; in the data active = inhibition mostly above about 10%, no sharp cut-off; inactive = mostly below about 6.7%;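 note: stock transfer was 7.5 nL into about 10 µL; 0% = median of vehicle wells and 100% = median of positive control wells; one replicate is shown; the record names a cut of 25% in any replicate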
Active calls of the source: *; u = inconclusive; x = no result given.

SMILES	Bfl-1 A1 inh	T cruzi repl	MLL AF4-AF9 inh	Calb FLC	RanGTP-Impb inh	Vif TR-FRET	Beta apoptosis	LANA-H2A inh
COc1cccc(CNC(=O)Cc2csc(NC(=O)Nc3ccccc3OC)n2)c1	0.4	-10	1.9	-5	5.2	1%	x	3.6
C/C(=N/NC(=O)c1ccc(Cl)cc1Cl)c1cccnc1	0.0	11	x	4	-2.0	5%	3	6.3
CC(C)[C@H](NC(=O)c1ccccc1)C(=O)OCC(=O)N1CCc2ccccc2C1	-0.1	3	x	4	u	18%	-2	2.0
O=C(O)c1cc(NC(=O)c2cccc(C(=O)Nc3cc(C(=O)O)cc(C(=O)O)c3)c2)cc(C(=O)O)c1	1.5	-9	-5.3	-8	1.2	x	-6	7.1
Cc1ccc(-c2nc3ccccc3c(=O)o2)cc1	-7.4	8	-3.6	5	4.0	x	-3	2.1
Cc1cc(N/N=C/c2ccccc2)nc(NCc2ccccc2)n1	-1.2	35	5.1	28	2.6	x	20	-9.1
Fc1ccc(-c2ccc(CNCc3ccccn3)o2)cc1Cl	-0.9	u	12	3	3.1	-7%	-1	1.2
Fc1cccc(Cl)c1-c1nnc2ccc(C(F)(F)F)cn12	1.6	-2	-0.2	18	-2.9	4%	-3	0.1
CC(NC(=O)CN1CCN(Cc2cccc(F)c2)CC1)c1ccccc1 (stereo not drawn)	-0.3	11	-1.2	-5	1.0	x	6	2.5
Cc1ccc(NC(=O)Cc2nc(CCl)cs2)cc1	0.4	-14	x	-16	5.3	u	-2	-0.8
Nc1ccc(S(=O)(=O)N2CCCC2C(=O)O)cc1 (stereo not drawn)	-0.6	4	-4.5	-3	8.7	22%	0	3.9
Cc1cc2oc(=O)cc(CN3CCCCC3C)c2cc1C(C)C (stereo not drawn)	-0.5	39	1.1	0	4.6	x	4	4.2
O=S(=O)(/C=C/c1ccccc1)NCCc1ccccn1	-0.5	-20	x	-29	3.9	7%	1	0.8
CCOC(=O)/C(C#N)=C1/C=C(C)NC(c2ccccc2O)=N1	-0.3	-21	x	27	3.5	1%	27	-4.4
Cc1ccc(Cn2ncc3c(N4CCN(c5ccc(C)cc5)CC4)ncnc32)cc1	-0.1	46	x	-8	4.9	19%	15	0.8

Copied from the list:
Cc1ccc(Cn2ncc3c(N4CCN(c5ccc(C)cc5)CC4)ncnc32)cc1 – LANA-H2A inh: 0.8
CC(NC(=O)CN1CCN(Cc2cccc(F)c2)CC1)c1ccccc1 (stereo not drawn) – Calb FLC: -5

Continuation:
SMILES	Bfl-1 A1 inh	T cruzi repl	MLL AF4-AF9 inh	Calb FLC	RanGTP-Impb inh	Vif TR-FRET	Beta apoptosis	LANA-H2A inh
CC(C)(C)NC(=O)CSc1nnc(-c2ccccn2)n1-c1ccccc1	-0.1	-1	-0.6	1	2.8	7%	-6	6.5
CCNc1nc(NCC)n2c(SCC(=O)c3ccccc3Cl)nnc2n1	-0.3	4	-2.1	-2	0.5	6%	-6	-1.0
C/C(=N\NC(=O)c1ccccc1F)c1ccccn1	-7.7	23	-1.3	-6	0.1	x	92*	1.5
COc1cccc(CN(C)CC(=O)NC(=O)NCc2ccccc2)c1	0.2	-5	x	-4	-0.6	4%	-5	-6.0
COc1ccc(CNC(=O)C(c2ccccc2F)N(C(=O)c2csnn2)C2CC2)cc1 (stereo not drawn)	-0.1	-19	0.0	-2	0.5	x	-6	-3.2
Cc1ccc(-c2ccc(/C=N/NC(=O)CN3CCCC3)o2)cc1Cl	-0.3	-11	x	-3	-1.7	6%	-2	-2.6
CC(C)CNC(=O)c1cccc2c1-c1ccccc1C2=O	0.7	-6	42*	-2	4.6	x	-2	-2.9
CCOC(=O)C1CCCN(C2CC(=O)N(c3ccccc3)C2=O)C1 (stereo not drawn)	-0.1	16	-11	4	-0.3	x	-1	3.8
O=C(CC1C(=O)NCCN1Cc1ccc(-c2ccccc2)cc1)NCCCn1cccn1 (stereo not drawn)	-0.5	5	-0.7	5	-1.3	4%	-2	0.6
COc1ccc(Cl)cc1NC(=S)Nc1ccc(Cl)cn1	-0.1	-12	0.1	-11	5.9	2%	-2	-2.1
Cc1ccc(C(=O)Nc2ccon2)cc1S(=O)(=O)N1CCCC1	-0.1	1	x	2	0.5	-4%	-6	0.6
COc1ccccc1N1CCN(CC(=O)N2N=CCC2c2ccccc2)CC1 (stereo not drawn)	0.6	11	-2.5	1	-1.3	x	-4	-2.4
c1cc(Nc2ncnc3sccc23)cc(-c2nnc3n2CCCCC3)c1	0.3	9	x	-2	-2.0	-5%	3	1.7
Oc1ccc(/C=N/NC(=S)Nc2cccnc2)cc1O	-0.6	9	-2.7	21	0.1	u	3	-1.9
CCCC(=O)NC(c1ccc(N(C)C)cc1)c1ccc2cccnc2c1O (stereo not drawn)	0.2	59*	50*	92*	0.0	25%	96*	-3.6
Cc1sc2ncn(CC(=O)NCCCC(=O)N(C)Cc3ccccc3)c(=O)c2c1C	-0.4	3	-4.8	3	0.2	8%	-2	-1.0
COc1cc(SC)ccc1C(=O)N(C)Cc1ccccc1	0.4	15	x	-7	6.5	-2%	-8	2.4
CNC(=O)c1[nH]cnc1C(=O)Nc1cccc(OC)c1	-0.6	-2	x	4	7.3	-2%	6	-1.9
CSc1nc(Cl)cc(N(CCO)CCO)n1	0.6	-12	x	-22	-0.7	8%	-13	0.9
O=C(c1ccc(Cl)cc1)c1oc2ccccc2c1CS(=O)(=O)c1ccccc1	0.0	-11	-7.5	-7	-0.8	u	5	-3.5
Cc1ccc(N2CC(C(=O)OCc3nc(N)nc(Nc4ccccc4C)n3)CC2=O)cc1 (stereo not drawn)	0.3	-8	-11	1	-1.3	-2%	-1	-8.8
COc1ccc(NCc2ccc3c(c2)OCO3)cc1Cl	-1.2	-8	-64	10	-0.9	u	-5	5.5
CN(C)c1oc(-c2ccccc2Cl)nc1S(=O)(=O)c1ccccc1	0.7	15	-6.0	-1	-0.6	15%	x	-1.9
CCOC(=O)CSc1nc2cc(C)ccc2cc1C#N	0.5	-12	x	4	1.1	30%	-4	-1.6
CC(=O)c1cccc(NC(=O)COC(=O)C2=COCCO2)c1	0.8	-10	x	-5	x	11%	-6	-0.8
COc1ccc(CCC(C)N2CCC(CO)(Cc3ccccc3)CC2)cc1 (stereo not drawn)	0.2	17	-3.3	1	-1.9	8%	x	9.1
CCOC(=O)c1ccc2c(c1)nc(SCC(=O)c1ccco1)n2CC	1.1	5	x	4	1.1	5%	2	-5.3
Cc1cc(C)n2nc(SCN3C(=O)c4ccccc4C3=O)nc2n1	0.6	-19	5.7	-6	0.6	-1%	-2	-3.3
O=C(CSc1ncnc2[nH]ncc12)Nc1nc(-c2ccc(F)c(F)c2)cs1	0.2	17	-2.9	60	u	0%	11	0.7
C/C(Cc1ccccc1)=N/NC(=O)CNC(=O)C(c1ccccc1)c1ccccc1	-1.0	-11	-2.0	-3	3.3	-1%	x	-0.7
CCC(=O)OCC(=O)[C@@]1(OC(=O)CC)[C@@H](C)C[C@H]2[C@@H]3CCC4=CC(=O)C=C[C@]4(C)[C@@]3(Cl)[C@@H](O)C[C@@]21C	-0.6	x	-2.1	x	x	x	3	-0.1
COCCN1Cc2cccc(C(=O)Nc3c(C)cccc3C)c2C1=O	1.1	-1	x	-6	-0.4	-5%	5	-1.5
Cc1ccc(S(=O)(=O)N2CCCOC2CNC(=O)C(=O)NC2CCCC2)cc1 (stereo not drawn)	-0.3	3	-16	-3	u	x	-1	-7.6
CCc1nc(Nc2ccc(F)cc2)c2oc3ccccc3c2n1	1.2	14	1.0	-9	-2.3	-2%	9	-5.3
C=C1c2cc(C)ccc2NC(=O)N1c1ccccc1	1.1	-10	-3.2	5	-4.4	-5%	0	-2.3
COc1ccc(S(=O)(=O)Oc2cccc(/C=N/N=C3/NC(=O)C(CC(=O)O)S3)c2)cc1 (stereo not drawn)	0.4	-1	0.6	-2	3.1	x	-6	3.3
Cc1cccc(NCC(=O)N/N=C\c2c[nH]c3ccccc23)c1	0.4	-21	9.0	-1	2.2	21%	-12	-1.4
Cc1ccc(NC(=O)CCC(=O)NNC(=O)c2ccco2)cc1C	0.2	-7	x	10	-2.9	32%	-6	1.0
Cc1cc(C)cc(-n2c(C)c3c(C)nnc(C)c3c2C)c1	-0.4	18	x	1	0.9	25%	30	2.3
CC1CN(C(=O)CCCN2C(=O)c3ccccc3C2=O)CC(C)O1 (stereo not drawn)	1.3	1	2.9	10	2.7	x	x	2.2
Oc1cccc(Oc2ncc(C(F)(F)F)cc2Cl)c1	-1.8	11	1.4	-4	3.0	-1%	-9	-2.1
COc1ccc(/C=C/C(=O)NC(=S)NNC(=O)c2cccnc2)cc1	0.9	-13	x	-15	2.2	16%	7	-1.3
Cc1nc(NC(=O)C23CC4CC(CC(C4)C2)C3)sc1Cc1ccc2c(c1)OCO2	0.0	65*	x	17	1.7	x	102*	2.9
Cc1ccccc1-c1nc(C#N)c(N2CCCCC2)o1	0.2	5	12	-2	-4.1	-4%	0	0.1
COc1ccccc1C(=O)NNC(=O)c1ccncc1	-0.4	0	-0.6	7	0.0	16%	2	1.2
CCC12CN3CC(CC)(CN(C1)C3c1c(O)ccc3ccccc13)C2=O (stereo not drawn)	x	-8	x	4	-4.0	4%	x	x
O=S(=O)(NCc1ccco1)N1CCOCC1	-0.3	0	x	-10	-0.2	28%	1	1.3
O=C(c1ccc([N+](=O)[O-])cc1)N1CCSC1c1cccc(Cl)c1 (stereo not drawn)	0.5	11	6.6	10	-0.9	-5%	3	-5.9
Cc1cc(C(=O)Nc2c(F)cc(F)cc2Br)no1	-0.5	-1	x	-15	u	-1%	2	6.9
O=C(CN1C(=O)NC2(CCCCCCC2)C1=O)NCc1ccccc1	-0.2	x	-0.1	x	x	x	-4	-0.6
S=c1nc(-c2ccccc2)n(CCCn2ccnc2)c2c1CCCC2	0.3	-4	-1.3	3	7.9	-6%	x	0.2
COC(=O)NNS(=O)(=O)c1ccc(C)cc1	0.3	-19	x	-3	-2.2	28%	-10	2.6
O=C(O)c1ccc2noc(-c3ccccc3)c2c1	-0.4	-8	x	-16	-1.0	13%	-7	-2.2
Cc1c(C)n(Cc2ccccc2)c2ncnc(NCCO)c12	-0.9	-1	-4.1	-6	-0.7	-3%	-3	0.8
CCOC(=O)c1c(C)[nH]c(C(=O)NNC(=O)c2ccccc2F)c1C	-0.8	x	-0.4	x	x	1%	9	3.1
CCOC(=O)N1CCN(CCC(=O)Nc2cccc(C)c2)CC1	0.9	-19	2.8	11	-1.4	-4%	-4	-1.1
Cc1ccc(NC(=O)Cn2nnc(C(=O)NCc3cccs3)c2N)cc1Cl	0.1	4	-4.5	-12	1.6	x	6	-5.8
